H5N1 CPE: antiviral screen in MDCK cells, H5N1 avian flu | cytopathic effect, luminescence, 72 h; hits give high values; no value below 0 was filed and about half of the inactive calls have no number; reference of the scale not given here | inhibition, % at 50 µM | 96,000 tested, 0.07% active | AID 740; in the data active means inhibition above about 25%
Numbers without * were called inactive; i = inactive.

molecule | H5N1 CPE
Cc1ccc(-c2ccc(CCC(=O)O)n2CC(=O)O)cc1 | i
COC(=O)C1CCN(C(c2cc(OC)c(OC)c(OC)c2)c2sc3nc(C)nn3c2O)CC1 (stereo unspecified) | 1.4
COc1ccccc1NC(=S)N1CCC(c2nc3cc(C)c(C)cc3[nH]2)CC1 | 0.2
CCCN1Cc2cccc(C(=O)Nc3ccc(S(=O)(=O)N4CCCCCC4)cc3)c2C1=O | i
CC(=O)N1N=C(c2cccc([N+](=O)[O-])c2)OC1c1ccc(Cl)cc1Cl (stereo unspecified) | i
C/C(=N\Nc1ccc([N+](=O)[O-])cc1)c1cccc(N)c1 | i
O=C(Nc1ccccc1)c1cnc(-c2ccccc2)nc1-c1ccccc1 | 0.5
CC(C)OP(=O)(OC(C)C)C(NC(=O)c1cccc([N+](=O)[O-])c1)C(N)=O (stereo unspecified) | i
C=CCn1c(C)cc(C(=O)CSc2nc3ccccc3c(=O)[nH]2)c1C | i
CCOC(=O)c1cc(C(C)=O)n2ccccc12 | 1.7
Cc1c(NC(=O)c2ccc3c(c2)OCO3)cccc1-c1nc2ncccc2o1 | i
CCOC(=O)c1ccc(NC(=O)c2cc(S(=O)(=O)N3CCOCC3)ccc2O)cc1 | i
CCOC(=O)c1c(NC(=O)C(Sc2ccccc2)c2ccccc2)sc(C(N)=O)c1C (stereo unspecified) | 2.5
CC(Sc1nncn1C)C(=O)Nc1ccccc1-c1ccccc1 (stereo unspecified) | i
C=C1CC(C)OC(c2ccccc2OCC(O)CN2CCCCC2)C1 (stereo unspecified) | i
CCn1c(SCc2nc3cc(OC)c(OC)cc3c(=O)[nH]2)nnc1-c1ccncc1 | i
C=CCn1c(SCc2cc(C(=O)OC)c(C)o2)nnc1-c1ccncc1 | 1.7
COCCNC(=O)CSc1ccc(C)cc1 | i
CCNC(=O)n1nccc1C(C)Oc1ccc(Cl)cc1 (stereo unspecified) | i
CCCNC(=O)Cc1ccsc1 | i
CCOc1cc(C(=O)Nc2ccc(S(=O)(=O)Nc3cc(C)on3)cc2)cc(OCC)c1OCC | i
CC1CCCC(C)N1C(=O)CSc1nc(N)c(-c2ccccc2)c(=O)[nH]1 (stereo unspecified) | 0.5
Cc1ccc(O)c(N=CC2=C(O)c3ccccc3C2=O)c1 | i
Cc1ccc(/C(N)=N/OC(=O)/C=C/c2ccccc2)cc1 | 0.1
O=[N+]([O-])c1c(NCCO)cc(Sc2nc3ccccc3s2)c2nonc12 | 1.2
CCn1c(=O)cc(OCC(=O)NCCCN2CCN(c3cccc(Cl)c3)CC2)c2ccccc21 | 1.8
CCCCNC(=O)C1=C(N)C(C(=O)Nc2ccc(C)c(S(=O)(=O)N3CCCCC3)c2)SC1=Nc1ccc(C)cc1C (stereo unspecified) | i
CCOC(=O)C1CCCN(CC(O)COc2ccc(OC)cc2C(C)(C)C)C1 (stereo unspecified) | 0.2
O=C1c2ccccc2C(=O)N1CCC(c1ccccc1)c1ccco1 (stereo unspecified) | 1.1
NC(=O)C1CCN(C(=O)c2ccc(CS(=O)(=O)c3c(Cl)cccc3Cl)o2)CC1 | 2.2
CC(C)n1c2ccccc2c2nnc(SCC(=O)OCN3C(=O)c4ccccc4C3=O)nc21 | 1.1
COc1ccc(C(=O)COC(=O)c2ccco2)cc1 | 1.5

Copied from the list.
In H5N1 CPE, O=C1c2ccccc2C(=O)N1CCC(c1ccccc1)c1ccco1 (stereo unspecified) is listed with 1.1
In H5N1 CPE, NC(=O)C1CCN(C(=O)c2ccc(CS(=O)(=O)c3c(Cl)cccc3Cl)o2)CC1 is listed with 2.2
In H5N1 CPE, CCn1c(=O)cc(OCC(=O)NCCCN2CCN(c3cccc(Cl)c3)CC2)c2ccccc21 is listed with 1.8

(continued)
molecule | H5N1 CPE
COc1ccc(CCN2C(=O)C3CC(C)=C(C)CC3C2=O)cc1OC (stereo unspecified) | 1.0
COc1ccc(S(=O)(=O)NCC(c2cccnc2)N2CCN(c3ccccc3)CC2)cc1C (stereo unspecified) | 1.6
O=C(NC1(C(F)(F)F)N=C2SCCN2C1=O)C1CCCCC1 (stereo unspecified) | i
CCOc1ccc(NC2c3ccccc3C(=O)N2c2ccc(Cl)cn2)cc1 (stereo unspecified) | i
C#CCn1c(=NC(=O)c2cccs2)sc2cccc(OCC)c21 | 0.1
CCC(=O)Nc1cnc(NC(=O)c2cccc(F)c2)cc1C | i
CCOc1ccc(N2C(=O)CC(N3CCC(O)(c4ccc(Br)cc4)CC3)C2=O)cc1 (stereo unspecified) | i
Cc1cccc(NC(=O)c2cccc3c2C(=O)c2ccccc2-3)c1 | i

A second format for some results above.
COCCNC(=O)CSc1ccc(C)cc1
  H5N1 CPE: i
CCNC(=O)n1nccc1C(C)Oc1ccc(Cl)cc1 (stereo unspecified)
  H5N1 CPE: i

Next results follow.
molecule | H5N1 CPE
CCOc1cccc(-c2nn3c(-c4cc(C)[nH]n4)nnc3s2)c1 | 0.5
COc1ccccc1NC(=O)Cn1nnc(-c2ccccc2NC(=O)c2ccco2)n1 | i
Cc1[nH]nc2c1C1(CCOC1C)C(C#N)=C(N)O2 (stereo unspecified) | 0.3
COc1ccc(-n2c(=O)[nH]c3ccccc3c2=O)cc1 | i
Cc1cc(C)cc(NC(=O)CN2CCc3ccccc3C2)c1 | i
CC(C)c1nnc(NC(=O)CCC(=O)NCc2ccc3c(c2)OCO3)s1 | 0.4
O=C(O)CCC(=O)N1CCN(c2ccccn2)CC1 | i
Cc1ccc(S(=O)(=O)N(CCO)c2cc3c(s2)CCCC3)cc1 | 0.5

In the list so far, these contain a Cl atom:
molecule | H5N1 CPE
CC(=O)N1N=C(c2cccc([N+](=O)[O-])c2)OC1c1ccc(Cl)cc1Cl (stereo unspecified) | i
CCNC(=O)n1nccc1C(C)Oc1ccc(Cl)cc1 (stereo unspecified) | i
CCn1c(=O)cc(OCC(=O)NCCCN2CCN(c3cccc(Cl)c3)CC2)c2ccccc21 | 1.8
NC(=O)C1CCN(C(=O)c2ccc(CS(=O)(=O)c3c(Cl)cccc3Cl)o2)CC1 | 2.2
CCOc1ccc(NC2c3ccccc3C(=O)N2c2ccc(Cl)cn2)cc1 (stereo unspecified) | i

The list continues:
molecule | H5N1 CPE
CC(=O)C1=C(O)CCC1=N | i
O=C(NC1=NCCS1)c1cccs1 | i
O=C(CN1CCC(NC(=O)c2ccccc2)CC1)NCc1ccccc1F | i
COC(=O)Cn1c2ccc(F)cc2c2nc(C)sc21 | i
COc1cc(CNCc2ccco2)ccc1OCc1ccccc1 | 0.7
COc1cccc(N2CCN(CC(=O)C34CC5CC(CC(C5)C3)C4)CC2)c1 | 0.2
CC(OC(=O)c1nsc(Cl)c1Cl)C(=O)NCc1ccc2c(c1)OCO2 (stereo unspecified) | i
Cc1ccc(C)n1C(Cc1ccccc1)C(=O)O (stereo unspecified) | 0.5
Cc1ccc(-c2cc(C(=O)NCc3ccccn3)no2)cc1 | i
CC(=O)NC(Cc1ccccc1)C(=O)N1CCN(C(=O)c2ccco2)CC1 (stereo unspecified) | i
CC1=C(C(=O)Nc2ccccc2)C(c2ccc(N(C)C)cc2)NC(=O)N1 (stereo unspecified) | i
CCOC(=O)C(C)(C)C(=O)C(C)(C)C(O)c1ccccn1 (stereo unspecified) | 1.0
Clc1ccc(-n2ncc3c(NCc4ccccn4)ncnc32)cc1 | 0.1
CN(C)c1ccc(/C=[N+](\[O-])C2SC(=S)N(C)C2(C)C)cc1 (stereo unspecified) | 0.1
CCN(CC)S(=O)(=O)c1ccc2oc(SCC3CN=C(c4ccc(OC)cc4)S3)nc2c1 (stereo unspecified) | 1.5
CCCCOc1ccc(C(CC(=O)NC)C(=O)O)cc1 (stereo unspecified) | i
O=C(CSc1ccc2nnc(-c3ccccn3)n2n1)N1CCOCC1 | 2.4
COCCNC(=O)COc1ccccc1C | i
O=C1OCCC1Sc1ncnc2sccc12 (stereo unspecified) | i
CN(CC(=O)N1CCCCC1)S(=O)(=O)c1cccc2cccnc12 | 0.4
O=C(Cn1c(-c2cscn2)nc2ccccc21)Nc1ccccc1F | i
CC(=O)NC1=NN(C(C)=O)C(c2sccc2C)S1 (stereo unspecified) | 0.7
COc1ccc(-n2c(COc3ccc(Cl)cc3)nnc2SCc2ccc(C#N)cc2)cc1 | i
CS(=O)(=O)N(CC(=O)Nc1cccc(Cl)c1Cl)c1ccccc1 | i
Cc1cccc(-n2c(N)cc(=O)nc2SCC(=O)Nc2ccccc2)c1 | 0.8
Cc1c(N2C(=O)SC(CC(=O)O)C2=O)c(=O)n(-c2ccccc2)n1C (stereo unspecified) | i
O=C(Nc1ccccc1)N1CCCC(c2nc(-c3ccc(F)cc3)no2)C1 (stereo unspecified) | i
Cc1ccc(C)c(N2CCN(C(=O)CCNC(=O)Cn3ccc4ccccc4c3=O)CC2)c1 | 0.2
Cc1ccc(C(=O)N/C(=C\c2cn(-c3ccccc3)nc2-c2ccccc2)C(=O)N2CCOCC2)cc1 | 0.1
CCC(C)NC(=O)C1CCN(S(=O)(=O)c2cccnc2)CC1 (stereo unspecified) | i
Fc1cccc2sc(Nc3nnc(-c4ccco4)o3)nc12 | 0.6
Cc1ccc(Cn2ccc(NC(=O)c3noc4c3CCCC4)n2)cc1 | i
O=C(Nc1ccc(NC(=O)C2CCCCC2)cn1)c1ccco1 | i
NC(=O)c1nsc(C(=O)N(CCc2ccccc2)C(C(=O)NC2CCCC2)c2ccco2)c1N (stereo unspecified) | i
CC(C)C(=O)NC(c1ccccc1Cl)c1c(O)ccc2ccccc12 (stereo unspecified) | i
CCc1nnc(SCc2ccc(C(=O)OC)o2)n1N | i
Cc1nc2ccc(NC(=O)c3cccc(C(F)(F)F)c3)cc2o1 | 9.4
Cc1ccc(C(C)NC(=O)c2ccco2)cc1C (stereo unspecified) | 0.6
COc1ccc(OCC(=O)OC2CCN(C)CC2)cc1 | i
CC1COC(c2cccn2Cc2ccccc2Cl)=N1 (stereo unspecified) | 0.3

Arranged by SMILES length (ascending): some entries from above
molecule | H5N1 CPE
COCCNC(=O)COc1ccccc1C | i
Cc1cc(C)cc(NC(=O)CN2CCc3ccccc3C2)c1 | i
CCOC(=O)C1CCCN(CC(O)COc2ccc(OC)cc2C(C)(C)C)C1 (stereo unspecified) | 0.2
CC(=O)NC(Cc1ccccc1)C(=O)N1CCN(C(=O)c2ccco2)CC1 (stereo unspecified) | i
Cc1c(N2C(=O)SC(CC(=O)O)C2=O)c(=O)n(-c2ccccc2)n1C (stereo unspecified) | i
Cc1ccc(C)c(N2CCN(C(=O)CCNC(=O)Cn3ccc4ccccc4c3=O)CC2)c1 | 0.2

Next part:
molecule | H5N1 CPE
COCCCn1c(C2CCCCC2)nc2oc3cc(OC)ccc3c(=O)c2c1=O | 4.6
COc1cccc(C2C(C(N)=O)=C(C)Nc3nc(-c4cccc(Cl)c4)nn32)c1 (stereo unspecified) | 0.3
Cc1ccc(NC(C)c2cc(Cl)ccc2O)cc1 (stereo unspecified) | i
Cc1ccccc1OCC(=O)OCC(=O)c1ccc(OC(=O)c2ccccc2)cc1 | i
COc1ccc(NCN2C(=O)CCC2=O)cc1 | i
N#Cc1c2c(c(NCCCN3CCOCC3)n3c1nc1ccccc13)CCC2 | 3.8
Cc1ccc2c(c1)N(CCC(=O)NCc1ccccn1)C(=O)CO2 | i
CC(=O)Nc1nc2c(ncn2COCCOC(C)=O)c(=O)[nH]1 | 1.1
Cc1ccc(-n2c(O)c(C=Nc3ccccc3N)c(=O)[nH]c2=O)cc1C | 0.5
CCCCOc1ccccc1Cn1c(=O)oc2ccc(C)cc21 | 2.3
Cc1ccc(C2CC(c3ccccc3)=NN2C(=S)Nc2ccccc2)o1 (stereo unspecified) | i
CCOC(=O)N1CCC(NC(=O)c2cc(-c3ccc(F)cc3)[nH]c2C)CC1 | 0.1
COCCn1nnnc1C(c1ccccn1)N1CCN(c2cc(Cl)ccc2C)CC1 (stereo unspecified) | 1.8
COc1ccc(C2=NN(CN3C(=O)C(=O)c4ccccc43)C(c3ccc(Br)cc3)C2)cc1 (stereo unspecified) | i
Cc1ccc(S(=O)(=O)NC2(C(F)(F)F)C(=O)Nc3c2c(=O)n(C)c(=O)n3C)cc1 (stereo unspecified) | i
COc1ccc(Cc2noc(COc3ccc(Cl)cc3)n2)cc1 | i
Cc1cc2ccccc2c(=O)n1CC(=O)NCc1ccco1 | 2.9
COc1ccccc1S(=O)(=O)Cc1ccc(C(=O)NC2CCCCC2)o1 | i
CCn1cnc2sc(C)c(C)c2c1=O | i
COc1ccc(CCNC(=O)c2cc(-c3ccc(C)c(C)c3O)n[nH]2)cc1OC | 0.8
COC(=O)c1ccccc1NC(=O)C1CC(c2ccc(F)cc2)=NO1 (stereo unspecified) | 0.3
COc1ccccc1C(=O)Nc1ccccc1C(=O)N1CCCC1 | 0.8
Cc1ccccc1NC(=S)N(C)Cc1cccs1 | 0.2
COc1ccc2c(c1)OC1=C(C(=O)CCC1)C2C1=C(O)CCCC1=O (stereo unspecified) | i
Cc1cccc(-n2cccc2)c1C#N | 0.3
CCCCN(CCCNC(=O)c1ccc2nc(N3CCOCC3)sc2c1)Cc1ccccc1 | i
CCCCCn1c(SCCN2CCOCC2)nc2c1c(=O)[nH]c(=O)n2C | 0.7
CC(C)OC(=O)CCc1nc2ccccc2[nH]c1=O | 1.6
Cc1onc(-c2ccccc2Cl)c1C(=O)OCN1C(=O)c2ccccc2C1=O | i
COc1ccc(N2CCN(Cc3oc(CO)cc(=O)c3O)CC2)cc1 | i
CCOc1ccccc1COC(=O)c1cccc(-n2cnnn2)c1 | 1.7
CCCn1c(-c2cccs2)nc2ccccc21 | 1.4
CCN(CC)C(=O)Nc1ccccc1C | 1.2
Cc1c(C(=O)NCc2cccs2)oc2ccccc12 | i
O=C(COc1ccccc1)NCC(c1cccs1)N1CCOCC1 (stereo unspecified) | i
O=C(CCCCCn1c(=O)[nH]c2ccsc2c1=O)NCc1cccs1 | i
CC(C)(C)n1nc2c(c1NC(=O)Cc1ccc(F)cc1)CSC2 | i
C=CCNC(=O)CCCc1ccccc1 | i
CCc1nc(SCC(=O)N2CCC(Cc3ccccc3)CC2)c2c(=O)n(C)c(=O)n(C)c2n1 | i

Assay outcomes (PubChem)

Some of the compounds tested; the hit share may differ from the screen's.
